# KCNQ2 pot: KCNQ2 (rat) channel potentiation. actives 0.54% (n = 310,000). CHO-K1 KCNQ2, FluxOR thallium flux fluorescence; stronger effect = higher value. AID 2239. O88943. B-score at 10 µM;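 active means fluorescence ratio B-score at least 3 SD of library B-scores, with initial fluorescence B-score within 3 SD, cut at about 5.3 in these data; same plate scores as AID 2156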;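 further: B-score of peak minus minimum over baseline fluorescence ratio after K+ and Tl+ stimulus; positive B-score means potentiation of KCNQ2 with more thallium influx and brighter signal; only the inactives scoring about 0 or higher are listed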
# Target sequence (O88943 whole entry, looked up): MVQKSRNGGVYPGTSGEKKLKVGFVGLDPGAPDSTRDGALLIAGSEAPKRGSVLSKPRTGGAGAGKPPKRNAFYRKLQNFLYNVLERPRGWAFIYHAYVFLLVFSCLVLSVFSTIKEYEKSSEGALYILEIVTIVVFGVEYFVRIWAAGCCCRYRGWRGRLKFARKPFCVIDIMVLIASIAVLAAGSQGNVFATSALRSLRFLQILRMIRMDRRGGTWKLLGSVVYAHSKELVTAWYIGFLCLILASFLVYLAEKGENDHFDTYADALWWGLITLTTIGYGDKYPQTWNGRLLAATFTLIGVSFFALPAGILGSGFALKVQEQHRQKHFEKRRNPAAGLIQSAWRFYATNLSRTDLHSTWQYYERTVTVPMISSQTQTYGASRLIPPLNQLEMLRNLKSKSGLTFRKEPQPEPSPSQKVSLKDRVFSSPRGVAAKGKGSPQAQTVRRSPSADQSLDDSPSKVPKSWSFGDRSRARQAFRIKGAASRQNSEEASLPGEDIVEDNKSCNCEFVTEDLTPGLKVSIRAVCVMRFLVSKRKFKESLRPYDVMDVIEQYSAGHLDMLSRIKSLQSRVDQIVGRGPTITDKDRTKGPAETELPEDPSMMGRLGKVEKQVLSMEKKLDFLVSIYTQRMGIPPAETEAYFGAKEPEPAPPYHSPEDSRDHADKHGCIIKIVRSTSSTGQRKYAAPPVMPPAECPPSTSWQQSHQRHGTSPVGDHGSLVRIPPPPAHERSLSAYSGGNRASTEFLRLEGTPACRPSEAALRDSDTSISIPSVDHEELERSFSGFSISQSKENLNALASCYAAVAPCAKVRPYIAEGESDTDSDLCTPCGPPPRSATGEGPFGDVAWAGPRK
# KCNQ2 pot baseline: recorded beside KCNQ2 pot, whose call it bears; B-score; compound at 10 µM; measured here: initial fluorescence intensity artifact check;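 brightness before thallium and not channel activity; 0 = typical well and far values either way flag optical interference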
# An asterisk follows results filed as active; · = no result given. Not all compounds are listed (hit frequency here may not be typical).
SMILES,KCNQ2 pot,KCNQ2 pot baseline
Cc1ccc2[nH]c(=O)c3cc(C(=O)NCCN4CCN(C)CC4)sc3c2c1,1,-0.47
CCOC(=O)c1c(S(=O)(=O)Nc2cccc(-c3ccno3)c2)c(C)n(C)c1C,0.77,0.68
CC(C)(C)NC(=O)N1CCC(CO)(Cc2ccccc2Cl)CC1,0.07,-0.82
Cc1ccccc1NC(=O)C1CCN(C(=O)N2CCOc3ccccc32)CC1,0.64,-0.01
CCOc1ccc(Cn2nnc(C(=O)NCCc3ccccc3)c2N)cc1,0.2,-0.98
COC(=O)c1ccc(C2c3c(oc4ccccc4c3=O)C(=O)N2CCCN2CCOCC2)cc1 (stereo not given),0.04,-1
O=c1cc(-c2ccc3c(c2)OCO3)oc2ccccc12,1.3,0.18
Cc1cc(C)cc(N(CC(=O)NC2CCCC2)C(=O)C2(C)CC(=O)N=C3C=CC=CN32)c1 (stereo not given),2.5,-0.29
CC(=O)OCC1=C(C(=O)O)N2C(=O)C(NC(=O)c3ccc(COc4cccc(Cl)c4Cl)o3)C2SC1 (stereo not given),0.01,-0.83
CCc1ccc(S(=O)(=O)/N=C2\C=C(Nc3cccc(C(=O)O)c3)C(=O)c3ccccc32)cc1,1.2,-1.2
CCOC(=O)CSc1ncnc2c1cnn2-c1ccc(Cl)cc1,0.03,0.03
COc1ccc(NC(=O)CCC(=O)Nc2nnc(CC(C)C)s2)cc1Cl,0.66,0.97
Cc1ccc2cc(CCNC(=O)c3ccc(S(=O)(=O)N4CCOCC4)cc3)c(=O)[nH]c2c1,1.1,0.98
Cc1cc(-c2nnc3n2N=C(c2ccc(F)cc2)CS3)n[nH]1,0.04,0.16
CCCCN=c1sc(C(=O)OC)cc(=O)n1CCCC,1.6,0.14
Cn1c(CCNC(=O)c2ccc(F)cc2)nc2ccccc21,0.03,1.2
CCOC(=O)N1CCN(C(=O)CSc2nc(=O)n3cc(C)ccc3n2)CC1,0.2,2.1
CC(C)Cc1nnc(NC(=O)CCC(=O)NC2CCCC2)s1,1.4,-0.34
COCCNc1ncnc2c1nc1n2CCCC1,1.1,-0.76
CC(C)CN1C(=O)C(=O)N(CC(=O)c2ccc3c(c2)OCO3)C1=O,0.21,-0.57
Cc1ccc(OCC(=O)N(Cc2cccc(F)c2)C2CCS(=O)(=O)C2)cc1 (stereo not given),0.48,-1.3
Cc1cc(C)n(C(=O)COc2c(C)cccc2C)n1,1.4,0.96
CCC(=O)c1ccc(OCC(=O)OCC(=O)c2cc(C)n(C)c2C)cc1,0.76,2
COc1ccc(NC(=O)CSc2nc3ccccc3c(=O)n2CCCC(=O)NCC2CCCO2)c(OC)c1 (stereo not given),4.5,-0.68

# Of the compounds above, these have an aryl thioether with sulfur outside any ring:
SMILES,KCNQ2 pot,KCNQ2 pot baseline
CCOC(=O)CSc1ncnc2c1cnn2-c1ccc(Cl)cc1,0.03,0.03
CCOC(=O)N1CCN(C(=O)CSc2nc(=O)n3cc(C)ccc3n2)CC1,0.2,2.1
COc1ccc(NC(=O)CSc2nc3ccccc3c(=O)n2CCCC(=O)NCC2CCCO2)c(OC)c1 (stereo not given),4.5,-0.68

# More compounds follow.
SMILES,KCNQ2 pot,KCNQ2 pot baseline
CC(O)CNCCCOc1cccc(Oc2ccccc2)c1 (stereo not given),2.4,1.3
NS(=O)(=O)c1ccc(NC(=O)COC(=O)/C=C/c2ccc([N+](=O)[O-])cc2)cc1,0.15,-0.06
CNCCCOc1cccc(OC(C)C)c1,0.6,2
CCOc1c(Br)cc(/C=C2\N=C(C)OC2=O)cc1Br,0.79,-0.47
COc1cccc(-c2c(C(=O)N/N=C(\C)c3ccc(Cl)s3)nnn2-c2nonc2N)c1,1.1,-0.98
CN1C2C(Br)CCCCN2c2ccc(F)cc2S1(=O)=O (stereo not given),0.51,-1.1
O=C(O)c1ccc(CNc2ccccc2C(=O)O)cc1,1.7,0.58
Nc1c(-c2ccc(Cl)cc2)cnn1-c1cccc(C(F)(F)F)c1,0.34,-0.01
CN(Cc1nc(-c2ccncc2)no1)S(=O)(=O)c1ccc(Cl)cc1,1.5,1.3
O=S(=O)(Nc1cccc(F)c1)c1cccc2nsnc12,0.41,-0.97
CCCCCOC(=O)C1=C(C)Nc2nnnn2C1c1ccccc1Cl (stereo not given),0.25,0.11
Cc1ccc(NC(=O)CSC2=C(C#N)C(c3ccco3)C3=C(CCCC3=O)N2)cc1 (stereo not given),1.4,-0.71
COc1ccc(NC(=O)C(CC(=O)O)Cc2ccc(Br)cc2)cc1 (stereo not given),1.3,-0.81
O=C(O)c1cnn(-c2ccccc2)c1C(F)(F)F,0.19,-0.29
O=C(CN(C(=O)c1csnn1)c1ccccc1)NCCc1ccccc1,0.23,0.17
CN(Cc1cc2ccccc2[nH]c1=O)S(=O)(=O)c1ccccc1,0.39,0
O=C(COc1ccc(S(=O)(=O)N2CCOCC2)cc1)N1CCN(c2ccccc2)CC1,1.9,-0.39
OC(c1ccc(Cl)cc1)C(CN1CCOCC1)c1ccccc1 (stereo not given),0.8,3.1
COCCn1c(C)nnc1SCC(=O)NNC(=O)c1ccc(Br)cc1,0.42,0.25
CCCc1nc2nc(C)c(NS(=O)(=O)c3ccc(F)cc3)c(=O)n2[nH]1,0.76,-3
CC(C)N(C(=O)Cn1cc(S(=O)(=O)CC(=O)NCc2ccc(F)cc2)c2ccccc21)C(C)C,0.69,-0.64
O=C(O)c1nc(-c2ccccc2)n(-c2cccc(C(F)(F)F)c2)n1,0.95,-1.4
Cc1ccccc1OCC(=O)NC(Cc1c[nH]c2ccccc12)C(=O)O (stereo not given),0.51,-1
C#CCOCCOCCOCCNc1nc(N2CCN(C(=O)[C@H](CCCCN)n3cc([C@@H](N)C(C)CC)nn3)CC2)nc(N2CCN(C(=O)[C@H](CCCCN)n3cc([C@@H](N)CO)nn3)CC2)n1 (stereo not given in full),0.34,0.24
O=C(Nc1nnc(-c2ccc(F)cc2)s1)C1CCN(S(=O)(=O)c2ccc(Cl)cc2)CC1,0.4,0.4
CCn1cnc2cc(NC(=O)c3ccc(C)cc3)ccc21,1.3,-2.3
C#CCNC(=O)C1=C[C@H](c2coc3ccccc3c2=O)C[C@H](OCCCCO)O1,2.1,-0.02
Cc1nc(-c2ccccn2)nc(SCC(=O)c2ccccc2)c1Cl,0.18,0.02
CN(C)CCOC(=O)c1ccc(COc2ccccc2Br)o1,1.3,2.7
CC12CCC(C(=O)N/N=C/c3ccc(O)cc3O)(OC1=O)C2(C)C (stereo not given),0.35,-0.8
CSCCNC(C)=O,0.68,0.61
Cc1ccc(-c2nnc(Nc3ccc(CC(N)=O)cc3)c3ccccc23)cc1S(=O)(=O)NCC1CCCO1 (stereo not given),0.86,1.6
CCOc1ccccc1/C=C(/NC(=O)c1ccccc1)C(=O)NCC(=O)O,0.46,1.5
Cc1oc(-c2ccccc2F)nc1CS(=O)(=O)CC(=O)N1CCN(c2ccccc2)CC1,0.55,0
COc1cccc(NC(=O)c2sc3nc(N4CCOCC4)c4c(c3c2N)CCCC4)c1,0.07,-0.68
COC(=O)c1nc(NC(=O)C(C)(C)C)n[nH]1,1.1,-0.77

# Compounds listed so far that have bromine (five):
SMILES,KCNQ2 pot,KCNQ2 pot baseline
CCOc1c(Br)cc(/C=C2\N=C(C)OC2=O)cc1Br,0.79,-0.47
CN1C2C(Br)CCCCN2c2ccc(F)cc2S1(=O)=O (stereo not given),0.51,-1.1
COc1ccc(NC(=O)C(CC(=O)O)Cc2ccc(Br)cc2)cc1 (stereo not given),1.3,-0.81
COCCn1c(C)nnc1SCC(=O)NNC(=O)c1ccc(Br)cc1,0.42,0.25
CN(C)CCOC(=O)c1ccc(COc2ccccc2Br)o1,1.3,2.7

# New compounds follow:
SMILES,KCNQ2 pot,KCNQ2 pot baseline
CN(C)S(=O)(=O)c1ccc(Cl)c(NC(=O)COC(=O)c2ccc3c(c2)NC(=O)CS3)c1,0.67,-0.78
Cc1cccc(OCC(=O)N(C)CCc2ccccn2)c1,1.4,-1
CCOC(=O)COc1c(Br)cc(C2NC(=O)NC(C)=C2C(C)=O)cc1OC (stereo not given),0.02,-0.02
CN(c1cccc(NC(=O)c2ccc(Cl)c(S(=O)(=O)Nc3ccccc3)c2)c1)S(C)(=O)=O,2.4,-2.4
CCOc1ccc2nc(NC(=O)c3ccc(OCC4CCCO4)cc3)sc2c1 (stereo not given),1.3,0.22
CCC(=O)NC(Nc1ncc(C)s1)(C(=O)OC)C(F)(F)F (stereo not given),1.3,-0.73
CCOc1ccc(CNC(=O)c2ccccc2NC(=O)C2=CSCCO2)cc1,1.2,-0.42
CCN(C(=O)COC(=O)/C(C#N)=C/c1ccc(OC)cc1)C1CCS(=O)(=O)C1 (stereo not given),0.42,-1.1
Cc1nnc(SCC2=C(C(=O)O)N3C(=O)[C@@H](NC(=O)Cn4cnnn4)[C@H]3SC2)s1,0.06,·
NNC(=O)c1sccc1OCc1ccc(Cl)cc1Cl,3.8,3.5
CC(=O)c1ccc(NC(=O)c2ccc(S(=O)(=O)N3CCCC3)cc2)cc1,0.54,-0.1
CCOC(=O)C1=C(C)NC(=O)NC1c1ccc(F)cc1 (stereo not given),1.9,0.69
COc1cccc(CSc2nnc(-c3ccco3)n2C)c1,1.4,-1.4
Cc1nn(C)cc1CNC(=O)c1cccc(F)c1,0.3,0.01
O=C(COc1ccc([N+](=O)[O-])cc1Cl)N1CCOCC1,2.8,-1.2
Cc1ccc(S(=O)(=O)CCSc2nc(C)cc(C)c2C#N)cc1,0.29,-1.8
COc1ccc([N+](=O)[O-])cc1NC(=O)Cc1ccccc1Cl,1,-0.46
COC(=O)Nc1nn(-c2ccc(OC)cc2)c(=O)c(C#N)c1C,0.1,-0.04
CCCCN(CCCC)S(=O)(=O)c1ccc(NC(=O)Cc2cccs2)cc1,1.3,-0.53
Cn1cc(CNCc2ccccc2OCC(O)CN2CCc3ccccc3C2)cn1 (stereo not given),0.06,-0.25
Cc1cc(=O)oc2c3c(cc(OCC(=O)NCCN4CCOCC4)c12)OC(C)(C)CC3,0.94,-0.01
N=C1C(c2nc3ccccc3s2)=C(O)CN1c1ccccc1,1.2,0.49
CC1CCCCC1NC(=O)Cn1cnc2ccccc2c1=O (stereo not given),0.1,-1.1
Cn1cc([N+](=O)[O-])c(C(=O)Nc2sc3c(c2C#N)CCC3)n1,0.19,-1.1

# Ordered by formula weight (falling): 3 of the compounds above
SMILES,KCNQ2 pot,KCNQ2 pot baseline
Cc1ccccc1NC(=O)C1CCN(C(=O)N2CCOc3ccccc32)CC1,0.64,-0.01
Nc1c(-c2ccc(Cl)cc2)cnn1-c1cccc(C(F)(F)F)c1,0.34,-0.01
COc1ccc([N+](=O)[O-])cc1NC(=O)Cc1ccccc1Cl,1,-0.46

# New compounds follow
SMILES,KCNQ2 pot,KCNQ2 pot baseline
O=C(Nc1ccc(Cl)cc1)N1CCSc2ccccc21,0.81,-0.04
Cc1ccc(NC(=S)NNC(=O)c2cccc([N+](=O)[O-])c2)cc1Cl,1.6,0.3
COc1ccc(CCC(=O)Nc2ccc(Br)cn2)cc1,0.06,0.1
O=C(COc1ccc([N+](=O)[O-])cc1)NNC(=O)Nc1ccccc1F,0.35,1.4
CC(C)C(=O)NCCc1nc(-c2ccccc2Cl)no1,1.4,-1
O=C(Nc1ccccc1)c1cc2ccccc2[nH]1,2.1,0.54
CC(C)C(c1nnnn1C1CCCCC1)N1CCN(C(=O)c2ccco2)CC1 (stereo not given),0.1,1.4
COc1ccc(NC(=O)CN2C(=O)S/C(=C/c3cccn3-c3ccc(C(=O)O)cc3)C2=O)cc1,0.53,2.1
Cc1ccccc1-n1ncc2c1CC(C)(C)CC2NC(=O)CSc1ccncc1 (stereo not given),0.09,-1.3
NC(=S)Nc1cccc2cnccc12,0.31,0.01
COc1ccc(N2CCN(CCNC(=O)c3nnc(Cc4c(F)cccc4Cl)o3)CC2)cc1,0.06,-2.5
Cc1cc(=O)[nH]c(N/N=C/c2ccc(C)o2)n1,1.3,0.32
Cc1nn(Cc2ccc(F)cc2)c(C)c1NC(=O)c1noc2c1CCc1ccccc1-2,1.9,-0.36
COC(=O)C1(C)Cc2cc(OC(C)=O)c(OC(C)=O)cc2N1 (stereo not given),0.12,0.77
CCc1ccc(Nc2nnc(SCC(=O)NCCN3C(=O)CSC3=O)s2)cc1,0.81,-1.1
Cc1ccc(-n2c(N)c(C(=O)N3CCN(C)CC3)sc2=S)cc1,2.7,-1.7
Nc1nc(SCc2ccc(Br)cc2)[nH]c(=O)c1-c1ccccc1,0.48,2.1
CC(=O)Nc1nc2c(s1)C(=O)NCC(C)(C)C2,1.2,-0.22
CCN(CC)C1CCN(C(=O)c2cc(COc3ccccc3SC)on2)C1 (stereo not given),2.1,-0.29
O=C(C1CCN(c2nnc(N3CCCC3=O)s2)CC1)N1CCN(c2cccc(C(F)(F)F)c2)CC1,2.1,0.78
Cc1ccc(-c2ccc(CCC(=O)O)n2Cc2ccco2)cc1,0.99,0.78
CC1CCN(C(=O)Cn2c(=O)oc3ccccc32)CC1,0.36,-0.05
Cc1ccc(C(NC(=O)N2CCCC2)C(Cl)(Cl)Cl)cc1F (stereo not given),0.4,-1
COc1ccc(/C=C(/C#N)C(=O)NC2CCCCC2)cc1Br,0.37,-1.3
CN(C)C(=O)CSc1cnc2ccccc2n1,0.13,1.2
O=C(Cn1c(=O)sc2ccccc21)Nc1ccc(O)cc1,0.68,-0.08
CC(=O)N(C)c1ccc(OCC(O)COc2ccc(N(C)C(C)=O)cc2)cc1,0.53,0
Cc1cccc(NC(=O)C2CCCN(S(=O)(=O)c3cccc4nsnc34)C2)n1 (stereo not given),0.33,-1.2
Cc1ccc(S(=O)(=O)NCCN=Cc2ccc(N(C)C)cc2)cc1,0.47,-1.1
O=C(CSc1nnc(CNC(=O)c2ccc(F)cc2)o1)NCc1ccccc1,0.43,-0.32
